Vaccinia stage: blocks a specific stage of Vaccinia orthopoxvirus infection; 89,000 tested, 0.01% active; activity change (mCherry), % (no concentration beside the values); Vaccinia-infected cells, mCherry/Venus stage reporter fluorescence; stronger effect = lower value; some inactives read as strong as hits;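 active means mCherry past -33% and 40 or more points under the early reporter, replicates agreeing; inconclusive means past -33% without that gap or agreement; tested in A549 cells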;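 further: scaled between vehicle wells and reference inhibitor wells; 23 nL library stock went into each well; one replicate is shown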
Vaccinia stage Venus: recorded beside Vaccinia stage, whose call it bears; activity change (Venus), %; measured here: Venus reporter, other viral stage;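 negative = less Venus signal; first of two replicates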
* hit, by the source's call; & = joins results of further samples.

Screening C[C@@H]1CCCCO[C@H](CN(C)C(=O)Nc2ccccc2)[C@H](C)CN([C@@H](C)CO)C(=O)c2cc(NC(=O)Nc3ccc4c(c3)OCO4)ccc2O1 returned Vaccinia stage 16 and Vaccinia stage Venus 6.
Screening C[C@H](CO)N1C[C@H](C)[C@H](CN(C)Cc2ccc(-c3ccccc3)cc2)OCc2ccccc2-c2c(n(C)c3ccccc23)C1=O returned Vaccinia stage -12 and Vaccinia stage Venus -1.
O=C(C[C@H]1CC[C@H](NC(=O)c2ccccc2)[C@@H](CO)O1)NCc1ccncn1 was read as Vaccinia stage 15 and Vaccinia stage Venus 11.
`CO[C@@H]1CN(C)C(=O)c2ccc(NC(=O)Nc3cccc(F)c3)cc2OC[C@H](C)N(C)C[C@H]1C` gave Vaccinia stage -15 and Vaccinia stage Venus -15.
Screening COc1ccccc1CN1C[C@@H](C)[C@@H](OC)CN(C)C(=O)c2ccc(NC(C)=O)cc2OC[C@@H]1C returned Vaccinia stage 11 and Vaccinia stage Venus 1.
Screening COc1ccc(NC(=O)N2CCCCN3[C@@H](CO)[C@@H](c4ccc(C5=CCCC5)cc4)[C@@H]3C2)cc1 returned Vaccinia stage inconclusive.
For C[C@@H]1CN([C@H](C)CO)C(=O)Cc2cc(NC(=O)Cc3cn(C)c4ccccc34)ccc2O[C@@H]1CN(C)Cc1ccc(Cl)c(Cl)c1 the results were Vaccinia stage inconclusive.
For CC(C)NC(=O)N1C[C@@H]2[C@H](c3ccccc31)[C@H](CO)N2C(=O)c1cccnc1 the results were Vaccinia stage -3 and Vaccinia stage Venus 7.
Screening CCN1CC(=O)N2[C@H](CO)[C@@H](c3ccc(-c4ccccc4F)cc3)[C@H]2C1 returned Vaccinia stage 23 and Vaccinia stage Venus 8.
`Cc1cccc(-c2ccc([C@H]3[C@H](CO)N4CCCCN(C(=O)NC(C)C)C[C@@H]34)cc2)c1` gave Vaccinia stage -29 and Vaccinia stage Venus -48.
For CC(C)NC(=O)N(C)C[C@H]1OCCCC[C@@H](C)Oc2ccc(NS(C)(=O)=O)cc2C(=O)N([C@@H](C)CO)C[C@H]1C the results were Vaccinia stage 14 and Vaccinia stage Venus 11.
For COc1ccc(CN(C)C[C@H]2Oc3ccc(NC(=O)Nc4ccccc4)cc3C(=O)N([C@H](C)CO)C[C@H]2C)cc1 the results were Vaccinia stage -28 and Vaccinia stage Venus -14.
Screening CC(C)NC(=O)Nc1ccc2c(c1)CC(=O)N([C@H](C)CO)C[C@H](C)[C@@H](CN(C)Cc1ccc(C(=O)Nc3ccccc3N)cc1)O2 returned Vaccinia stage 21 and Vaccinia stage Venus 16.
COc1ccccc1NC(=O)N1C[C@@H]2[C@H](c3ccccc31)[C@H](CO)N2Cc1ccc2c(c1)OCO2 was read as Vaccinia stage -28 and Vaccinia stage Venus -18.
COc1ccc(S(=O)(=O)Nc2ccc3c(c2)C(=O)N([C@H](C)CO)C[C@H](C)[C@H](CN(C)C(=O)NC2CCCCC2)O3)cc1 was read as Vaccinia stage 16 and Vaccinia stage Venus 14.

A run of entries from the list above, as a working copy:
Screening C[C@@H]1CCCCO[C@H](CN(C)C(=O)Nc2ccccc2)[C@H](C)CN([C@@H](C)CO)C(=O)c2cc(NC(=O)Nc3ccc4c(c3)OCO4)ccc2O1 returned Vaccinia stage 16 and Vaccinia stage Venus 6.
Screening C[C@H](CO)N1C[C@H](C)[C@H](CN(C)Cc2ccc(-c3ccccc3)cc2)OCc2ccccc2-c2c(n(C)c3ccccc23)C1=O returned Vaccinia stage -12 and Vaccinia stage Venus -1.
O=C(C[C@H]1CC[C@H](NC(=O)c2ccccc2)[C@@H](CO)O1)NCc1ccncn1 was read as Vaccinia stage 15 and Vaccinia stage Venus 11.
`CO[C@@H]1CN(C)C(=O)c2ccc(NC(=O)Nc3cccc(F)c3)cc2OC[C@H](C)N(C)C[C@H]1C` gave Vaccinia stage -15 and Vaccinia stage Venus -15.
Screening COc1ccccc1CN1C[C@@H](C)[C@@H](OC)CN(C)C(=O)c2ccc(NC(C)=O)cc2OC[C@@H]1C returned Vaccinia stage 11 and Vaccinia stage Venus 1.
Screening COc1ccc(NC(=O)N2CCCCN3[C@@H](CO)[C@@H](c4ccc(C5=CCCC5)cc4)[C@@H]3C2)cc1 returned Vaccinia stage inconclusive.
For C[C@@H]1CN([C@H](C)CO)C(=O)Cc2cc(NC(=O)Cc3cn(C)c4ccccc34)ccc2O[C@@H]1CN(C)Cc1ccc(Cl)c(Cl)c1 the results were Vaccinia stage inconclusive.
For CC(C)NC(=O)N1C[C@@H]2[C@H](c3ccccc31)[C@H](CO)N2C(=O)c1cccnc1 the results were Vaccinia stage -3 and Vaccinia stage Venus 7.

Later entries:
For COc1ccc(S(=O)(=O)N[C@@H]2CC[C@@H](CC(=O)N3CCc4ccccc4C3)O[C@@H]2CO)cc1 the results were Vaccinia stage -13 and Vaccinia stage Venus -7.
Screening O=C(C1=C[C@H](c2ccc(Br)cc2)C[C@H](OCc2ccc(CO)cc2)O1)N1CCOCC1 returned Vaccinia stage 6 and Vaccinia stage Venus 9.
CCC(=O)N1CC2(C1)[C@H](c1ccccc1)[C@@H](CO)N2C(=O)NC(C)C was read as Vaccinia stage 19 and Vaccinia stage Venus 12.
Screening COc1ccc(CN(C)C[C@@H]2Oc3ccc(NC(=O)CCC(F)(F)F)cc3C(=O)N([C@H](C)CO)C[C@@H]2C)cc1 returned Vaccinia stage 18 and Vaccinia stage Venus 8.
`CCCNC(=O)Nc1ccc2c(c1)C(=O)N(C)[C@@H]1CC[C@@H](CC(=O)NCC3CCCCC3)O[C@H]1CO2` gave Vaccinia stage 11 and Vaccinia stage Venus 13.
For C[C@@H]1CN([C@H](C)CO)C(=O)c2cccc(NS(=O)(=O)c3ccccc3)c2O[C@H]1CN(C)S(=O)(=O)c1ccc(Cl)cc1 the results were Vaccinia stage 3 and Vaccinia stage Venus 8.
Screening C[C@H]1CN([C@@H](C)CO)C(=O)Cc2cc(NC(=O)CCN3CCOCC3)ccc2O[C@H]1CN(C)S(=O)(=O)c1ccccc1 returned Vaccinia stage 29 and Vaccinia stage Venus 22.
C[C@@H]1CN([C@@H](C)CO)C(=O)c2c(c3ccccc3n2C)-c2ccccc2CO[C@H]1CN(C)C was read as Vaccinia stage inconclusive.
`CC(=O)N1[C@H](CO)[C@H](c2ccccc2)[C@H]1CN(C)S(=O)(=O)c1ccccc1` gave Vaccinia stage 4 and Vaccinia stage Venus 4.
For C[C@@H]1CN([C@@H](C)CO)C(=O)c2cc(-c3cncnc3)cnc2O[C@@H]1CN(C)C(=O)c1ccccc1F the results were Vaccinia stage 15 and Vaccinia stage Venus 2.
Screening O=C(C1CC1)N1CCCCN2[C@H](CO)[C@@H](c3ccc(-c4cccc(F)c4)cc3)[C@@H]2C1 returned Vaccinia stage -22 and Vaccinia stage Venus -8.
Screening CCC(=O)N(C)C[C@@H]1Oc2cc(Br)ccc2S(=O)(=O)N([C@H](C)CO)C[C@H]1C returned Vaccinia stage 10 and Vaccinia stage Venus 4.
`O=C([C@@H]1[C@@H](CO)[C@@H]2Cn3c(cccc3=O)[C@@H]2N1CC1CCCCC1)N1CCOCC1` gave Vaccinia stage 19 and Vaccinia stage Venus 20.
`CC(C)NC(=O)N1C[C@@H]2[C@H](c3ccccc31)[C@H](CO)N2Cc1ccc(Cl)cc1` gave Vaccinia stage 0 and Vaccinia stage Venus 5.
`COCC(=O)N(C)C[C@@H]1Oc2ncc(C#Cc3cccnc3)cc2C(=O)N([C@@H](C)CO)C[C@@H]1C` gave Vaccinia stage 19 and Vaccinia stage Venus 19.
CO[C@H]1CN(C)C(=O)c2ccc(NC(=O)c3cc(C)on3)cc2OC[C@@H](C)N(C)C[C@H]1C was read as Vaccinia stage 8 and Vaccinia stage Venus 9.
CCCNC(=O)N(C)C[C@@H]1Oc2cc(-c3cccnc3)ccc2S(=O)(=O)N([C@H](C)CO)C[C@H]1C was read as Vaccinia stage 12 and Vaccinia stage Venus 14.
`O=C(NC1CCC1)[C@H]1[C@H](CO)[C@H]2Cn3c(ccc(-c4ccccc4)c3=O)[C@H]2N1CCc1ccccc1` gave Vaccinia stage -27 and Vaccinia stage Venus -21.
`C[C@@H]1CN([C@@H](C)CO)S(=O)(=O)c2ccc(-c3ccccc3F)cc2O[C@H]1CN(C)Cc1cncnc1` gave Vaccinia stage -23 and Vaccinia stage Venus -22.
COc1ccc(-c2ccccc2[C@@H]2[C@@H](C#N)N(C(=O)C3CCOCC3)[C@H]2CO)cc1 was read as Vaccinia stage -8 and Vaccinia stage Venus -10.
`COc1cccc(-c2ccc3n(c2=O)C[C@H]2[C@H](CO)[C@@H](C(=O)NCC4CC4)N(C(C)=O)[C@@H]32)c1` gave Vaccinia stage 21 and Vaccinia stage Venus 11.
O=C(N[C@@H]1CC[C@@H](CCNC(=O)C2CCCCC2)O[C@H]1CO)c1ccncc1 was read as Vaccinia stage 4 and Vaccinia stage Venus 2.
C[C@@H]1CCCCO[C@H](CN(C)CC2CC2)[C@@H](C)CN([C@H](C)CO)C(=O)c2cc(NC(=O)Cc3ccccc3)ccc2O1 was read as Vaccinia stage 14 and Vaccinia stage Venus -3.
For C[C@@H]1CN([C@@H](C)CO)S(=O)(=O)c2ccc(C#CCN(C)C)cc2O[C@@H]1CN(C)C(=O)CN(C)C the results were Vaccinia stage -4 and Vaccinia stage Venus -3.
Screening O=C(C[C@H]1C=C[C@@H](NC(=O)Nc2cc(F)ccc2F)[C@@H](CO)O1)NCc1ccccn1 returned Vaccinia stage -4 and Vaccinia stage Venus 7.
COCC(=O)Nc1ccc2c(c1)C(=O)N(C)C[C@@H](OC)[C@H](C)CN(CCc1ccccc1)[C@H](C)CO2 was read as Vaccinia stage -2 and Vaccinia stage Venus -1.
Screening O=C(C[C@H]1CC[C@@H]2[C@H](COC[C@H](O)CN2CCc2ccccc2)O1)N1CCC(Cc2ccccc2)CC1 returned Vaccinia stage inconclusive.
For COC[C@@]12C[C@H]3C(=O)N(Cc4ccccc4)C(=O)[C@H]3[C@@H](CO1)/C2=C\c1ccccc1 the results were Vaccinia stage 3 and Vaccinia stage Venus -3.
`COCC(=O)Nc1ccc2c(c1)C(=O)N(C)C[C@@H](OC)[C@@H](C)CN(C(=O)c1cccnc1)[C@H](C)CO2` gave Vaccinia stage 2 and Vaccinia stage Venus 1.
Cc1noc(C)c1S(=O)(=O)Nc1ccc2c(c1)CC(=O)N([C@H](C)CO)C[C@@H](C)[C@H](CN(C)S(=O)(=O)c1cn(C)cn1)O2 was read as Vaccinia stage 21 and Vaccinia stage Venus 13.
Screening COc1cccc(NC(=O)C[C@@H]2CC[C@H]3[C@@H](COc4ccc(NC(=O)C5CC5)cc4C(=O)N3C)O2)c1 returned Vaccinia stage 8 and Vaccinia stage Venus 4.
`Cc1ccc(S(=O)(=O)N[C@H]2CC[C@@H](CCn3cc(C4CCCC4)nn3)O[C@H]2CO)cc1` gave Vaccinia stage -18 and Vaccinia stage Venus -19.
Screening O=C(O)C1=C[C@H](c2ccc3c(c2)OCO3)C[C@H](OCc2ccc(CO)cc2)O1 returned Vaccinia stage 6&8 and Vaccinia stage Venus -6&4.
`CCCNC(=O)Nc1ccc2c(c1)OC[C@H](C)N(C)C[C@@H](C)[C@H](OC)CN(C)C2=O` gave Vaccinia stage -7 and Vaccinia stage Venus -3.
For CCC(=O)Nc1ccc2c(c1)C(=O)N(C)C[C@H](OC)[C@@H](C)CN(CCc1ccccc1)[C@H](C)CO2 the results were Vaccinia stage -10 and Vaccinia stage Venus -11.
Screening CN1C(=O)c2cc(NC(=O)Cc3cccs3)ccc2OC[C@H]2O[C@H](CC(=O)NCCCN3CCOCC3)CC[C@@H]21 returned Vaccinia stage 2 and Vaccinia stage Venus 7.
Screening O=C(NCCc1ccncc1)[C@@H]1[C@@H](CO)[C@@H]2Cn3c(ccc(-c4ccc(F)cc4)c3=O)[C@H]1N2 returned Vaccinia stage 16 and Vaccinia stage Venus 14.
CC(=O)N(C[C@@H]1N[C@@H](CO)[C@H]1c1ccc(-c2cccnc2)cc1)C1CCCC1 was read as Vaccinia stage -2&8 and Vaccinia stage Venus -2&4.
COc1ccc(CNC(=O)C[C@H]2C[C@H]3c4cc(NC(=O)C5CCC5)ccc4O[C@H]3[C@H](CO)O2)cc1 was read as Vaccinia stage 4 and Vaccinia stage Venus 14.
C[C@@H]1CN([C@@H](C)CO)C(=O)c2cc(NC(=O)Nc3ccc(F)cc3)ccc2O[C@@H]1CN(C)C was read as Vaccinia stage 5 and Vaccinia stage Venus 5.
Screening O=S(=O)(c1ccc(F)cc1)N1CCCCN2[C@@H](CO)[C@@H](c3ccc(-c4cncnc4)cc3)[C@@H]2C1 returned Vaccinia stage -2 and Vaccinia stage Venus -4.
Screening CO[C@H]1CN(C)C(=O)c2ccc(NS(C)(=O)=O)cc2OC[C@H](C)N(CC2CC2)C[C@@H]1C returned Vaccinia stage 5 and Vaccinia stage Venus -1.
Screening CCc1csc(N2[C@H](CO)[C@H](c3ccccc3)[C@@H]2CNC)n1 returned Vaccinia stage -12 and Vaccinia stage Venus -4.
COC(=O)C[C@@H]1C[C@@H]2c3cc(N)ccc3O[C@@H]2[C@H](CO)O1 was read as Vaccinia stage 14 and Vaccinia stage Venus 14.
Cc1noc(C)c1S(=O)(=O)Nc1ccc2c(c1)C(=O)N([C@H](C)CO)C[C@H](C)[C@@H](CN(C)C(=O)Cc1ccccc1)OCCCC[C@H](C)O2 was read as Vaccinia stage 13 and Vaccinia stage Venus 0.
CO[C@@H]1CC[C@@H]2CCOc3ccc(C#N)cc3C(=O)N(C)[C@H](C)C(=O)N(C)C[C@@H]1O2 was read as Vaccinia stage 7 and Vaccinia stage Venus -1.
CNC[C@@H]1Oc2cc(-c3ccccc3F)ccc2S(=O)(=O)N([C@H](C)CO)C[C@H]1C was read as Vaccinia stage -17 and Vaccinia stage Venus -6.
For COCC(=O)Nc1ccc2c(c1)OC[C@H](C)N(C(=O)c1cccnc1)C[C@H](C)[C@@H](OC)CN(C)C2=O the results were Vaccinia stage -11 and Vaccinia stage Venus -7.
Screening N#C[C@H]1[C@H](c2ccc(-c3ccccc3F)cc2)[C@@H](CO)N1C(=O)c1ccccn1 returned Vaccinia stage -31 and Vaccinia stage Venus -32.

High-throughput results: PubChem BioAssay, Broad Institute

Some of the compounds tested, so the mix of outcomes need not match the whole.
